# DUX4 inh: blocks DUX4-driven transcriptional activation; 293T-iDUX4 ZSCAN4-Gaussia luciferase reporter, 24 h; hits give low values; activity change, negative = inhibition, % (concentration not given with the values); 37,000 tested, 0.8% active; AID 1224904;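 active means -10% or lower and over 25 points stronger than a control reporter; inconclusive means -10% or lower with a smaller gap; inactive means above -10%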;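 further: 0% = median of neutral control wells and -100% = median of positive control wells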
# DUX4 inh difference: second read-out of DUX4 inh, no call of its own (marks repeat the call); Gaussia minus Italica difference, %; measured here: selective DUX4 reporter inhibition;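 worked out from the two reporters; negative = selective loss of the DUX4 reporter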
# DUX4 inh control: recorded beside DUX4 inh, whose call it bears; activity change, negative = inhibition, %; measured here: Italica tet-on control reporter;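 0 = neutral control and -100 = positive control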
# * hit, by the source's call; ? = inconclusive; . = not tested or not shown.
entry	mol	DUX4 inh	DUX4 inh difference	DUX4 inh control
1	C/C=C/c1ccc([C@H]2[C@H](CO)N3CCCCN(C(=O)Nc4ccc(F)cc4)C[C@@H]23)cc1	8.0	3.6	4.4
2	C[C@H]1CN([C@@H](C)CO)C(=O)c2c(c3ccccc3n2C)-c2ccccc2CO[C@H]1CN(C)C(=O)NC1CCCCC1	?	.	.
3	Cc1noc(C)c1S(=O)(=O)N(C)C[C@H]1OCc2cn(nn2)CCCC(=O)N([C@H](C)CO)C[C@@H]1C	-0.3	-4.5	4.3
4	COCC(=O)N1[C@H](CO)[C@H](c2ccc(-c3ccccc3OC)cc2)C12CN(C(C)=O)C2	7.1	-3.5	10.6
5	COc1ccc2c3c([nH]c2c1)[C@H](CO)N(C)CC31CN(C(=O)Nc2c(C)noc2C)C1	11.5	6.5	5.0
6	CCCNC(=O)c1cc2c(c(-c3cccc(-c4cc5ccccc5o4)c3)n1)[C@@H](CCO)N(C(=O)NC(C)C)C2	2.3	-0.8	3.1
7	CN1c2ccc(-c3cccc(C#N)c3)cc2[C@@H]2[C@@H](CCN2C(=O)NC2CCCC2)[C@@H]1CO	-2.6	6.7	-9.3
8	C[C@H](O)C#Cc1ccc2c(c1)O[C@H](CN(C)C(=O)C1CCCCC1)[C@H](C)CN([C@H](C)CO)S2(=O)=O	3.3	1.6	1.7
9	O=S(=O)(c1ccc(F)cc1)N1CC[C@@H]2[C@H](CO)Nc3ccc(Br)cc3[C@@H]21	-3.4	-4.3	0.9
10	O=C(c1ccc2c(c1)OCO2)N1CC(=O)N2[C@H](CO)[C@@H](c3ccc(C#CCC4CCCC4)cc3)[C@H]2C1	?	.	.
11	C[C@H](CO)N1C[C@H](C)[C@H](CN(C)C(=O)Cc2ccccc2)OCc2ccccc2-c2c(n(C)c3ccccc23)C1=O	?	.	.
12	O=C(NCC1CC1)[C@@H]1[C@@H](CO)[C@@H]2Cn3c(cccc3=O)[C@H]1N2C(=O)c1cccnc1	3.5	2.1	1.4
13	O=C(C[C@H]1C[C@@H]2c3cc(NC(=O)Nc4ccccc4F)ccc3O[C@@H]2[C@@H](CO)O1)NCC1CC1	-5.8	-6.2	0.4
14	CCCC#Cc1ccc([C@@H]2[C@@H](CO)N(C(=O)C3CCCC3)[C@H]2C#N)cc1	0.5	-2.3	2.8
15	O=C1CN(S(=O)(=O)c2ccccc2)C[C@@H]2[C@@H](c3ccc(Br)cc3)[C@H](CO)N12	2.0	0.7	1.3
16	C[C@@H]1CCCCO[C@H](CN(C)C(=O)c2ccncc2)[C@@H](C)CN([C@H](C)CO)C(=O)c2cc(NC(=O)NC3CCCCC3)ccc2O1	-3.7	-6.0	2.4
17	C[C@H](NC(=O)C[C@H]1C[C@@H]2c3cc(NS(C)(=O)=O)ccc3O[C@@H]2[C@H](CO)O1)c1ccccc1	-6.2	-8.4	2.2
18	C[C@@H]1CN([C@H](C)CO)C(=O)CCCn2cc(nn2)CO[C@H]1CN(C)CC1CCCCC1	2.7	-0.6	3.2
19	CCNC(=O)[C@H]1[C@H](CO)[C@H]2Cn3c(cccc3=O)[C@@H]1N2C(=O)Nc1cc(F)ccc1F	-6.0	-16.2	10.2
20	C[C@@H]1CCCCO[C@@H](CN(C)Cc2ccc(C(F)(F)F)cc2)[C@@H](C)CN([C@@H](C)CO)C(=O)c2cc(NC(=O)c3ccccc3)ccc2O1	1.5	-0.4	1.9
21	COCC(=O)N1C[C@@H](C)[C@@H](OC)CN(C)C(=O)c2cc(NC(=O)c3cnccn3)ccc2OC[C@@H]1C	6.6	2.4	4.2
22	COc1ccc(-c2ccc([C@H]3[C@@H](CO)N4C(=O)CN(C(=O)NC(C)C)C[C@@H]34)cc2)cc1	1.1	-5.1	6.2
23	Cc1ccccc1S(=O)(=O)N1CCCCN2[C@@H](CO)[C@@H](c3ccc(-c4cccnc4)cc3)[C@@H]2C1	-0.5	10.0	-10.5
24	COc1cccc(-c2cn(CC[C@H]3CC[C@H](NC(=O)CN(C)C)[C@H](CO)O3)nn2)c1	-1.2	4.1	-5.3
25	OC[C@H]1[C@@H](c2ccc(Br)cc2)[C@@H]2CN(Cc3ccccn3)CCCCN12	9.2	-0.1	9.3
26	C[C@H](CO)N1C[C@H](C)[C@@H](CN(C)S(=O)(=O)c2ccc(C#N)cc2)OCc2cnnn2CCCC1=O	3.3	4.3	-1.0
27	C[C@@H](NC(=O)[C@@H]1N[C@@H]2c3ccc(-c4ccncc4)c(=O)n3C[C@@H]2[C@H]1CO)c1ccccc1	-0.4	5.7	-6.1
28	COc1ccc(S(=O)(=O)Nc2ccc3c(c2)C(=O)N([C@@H](C)CO)C[C@H](C)[C@H](CN(C)C(=O)c2ccncc2)OCCCC[C@@H](C)O3)cc1	-3.0	-6.7	3.8
29	C[C@@H]1CCCCO[C@@H](CN(C)S(=O)(=O)c2cn(C)cn2)[C@@H](C)CN([C@@H](C)CO)C(=O)c2cc(NC(=O)Nc3ccc(C(F)(F)F)cc3)ccc2O1	1.0	-1.3	2.3
30	N#C[C@H]1[C@H](c2ccccc2-c2ccccc2F)[C@H](CO)N1C(=O)C1CC1	-1.4	-1.5	0.2

# In the list so far, 4 contain a cyano group:
entry	mol	DUX4 inh	DUX4 inh difference	DUX4 inh control
7	CN1c2ccc(-c3cccc(C#N)c3)cc2[C@@H]2[C@@H](CCN2C(=O)NC2CCCC2)[C@@H]1CO	-2.6	6.7	-9.3
14	CCCC#Cc1ccc([C@@H]2[C@@H](CO)N(C(=O)C3CCCC3)[C@H]2C#N)cc1	0.5	-2.3	2.8
26	C[C@H](CO)N1C[C@H](C)[C@@H](CN(C)S(=O)(=O)c2ccc(C#N)cc2)OCc2cnnn2CCCC1=O	3.3	4.3	-1.0
30	N#C[C@H]1[C@H](c2ccccc2-c2ccccc2F)[C@H](CO)N1C(=O)C1CC1	-1.4	-1.5	0.2

# Remaining list, next part
entry	mol	DUX4 inh	DUX4 inh difference	DUX4 inh control
31	C[C@@H]1CN([C@@H](C)CO)C(=O)Cc2cc(NS(=O)(=O)c3cccs3)ccc2O[C@@H]1CN(C)CC1CCCCC1	0.2	2.3	-2.1
32	C[C@@H]1CCCCO[C@@H](CN(C)C(=O)Nc2cccc3ccccc23)[C@H](C)CN([C@@H](C)CO)C(=O)c2cc(NC(=O)c3ccncc3)ccc2O1	4.1	-1.6	5.7
33	COCC(=O)N1[C@@H](CO)[C@@H](c2ccccc2)C12CN(C(=O)NC1CCCC1)C2	0.3	-5.7	6.0
34	CCCNC(=O)[C@@H]1[C@@H](CO)[C@@H]2Cn3c(cccc3=O)[C@H]1N2Cc1cc(F)ccc1F	1.0	-2.9	3.9
35	COc1ccc(C[C@@H]2CCc3cnnn3COC[C@H](Cc3ccccc3)NC2=O)cc1	-0.3	-3.3	3.0
36	Cc1cccc(-c2ccc(C3[C@@H]4CN(C(=O)Nc5ccc(C(F)(F)F)cc5)C[C@H]3N4)cc2)c1 (stereo partly specified)	?	.	.
37	O=C(C[C@H]1C[C@H]2c3cc(NC(=O)Cc4ccncc4)ccc3O[C@H]2[C@@H](CO)O1)NCCN1CCCCC1	6.8	-4.2	11.1
38	CC(=O)N1CC2(C1)[C@H](c1ccc(-c3cccc(C#N)c3)cc1)[C@H](CO)N2CCC(F)(F)F	-6.3	-5.4	-0.9
39	COc1ccccc1C#Cc1ccc([C@@H]2[C@H]3CN(CCC(F)(F)F)CCCCN3[C@H]2CO)cc1	-29.7*	-28.6*	-1.1*
40	C[C@@H]1CN([C@@H](C)CO)C(=O)Cc2cc(N(C)C)ccc2O[C@H]1CN(C)C(=O)NC1CCCCC1	4.8	1.5	3.3
41	COc1ccc2c3c([nH]c2c1)[C@@H](CO)N(C(C)=O)CC31CN(C(=O)c2cccc(F)c2)C1	-8.7	-19.3	10.6
42	O=C(CN1CCOCC1)NC[C@@H]1N[C@@H](CO)[C@H]1c1ccc(-c2ccccc2)cc1	-2.3	0.3	-2.6
43	C[C@@H]1CCCCO[C@@H](CN(C)S(=O)(=O)c2cn(C)cn2)[C@@H](C)CN([C@H](C)CO)C(=O)c2cc(NC(=O)Nc3ccc(C(F)(F)F)cc3)ccc2O1	-2.1	-3.6	1.5
44	COc1ccccc1-c1ccc([C@H]2[C@@H](CO)N(C(=O)C3CC3)[C@H]2C#N)cc1	0.7	-0.7	1.4
45	CCCC#Cc1ccc([C@H]2[C@@H](CO)N3CCCCN(Cc4cccnc4)C[C@@H]23)cc1	-0.4	4.9	-5.3
46	CN(C)CCCNC(=O)C[C@@H]1CC[C@@H]2[C@@H](COc3ccc(NS(C)(=O)=O)cc3C(=O)N2C)O1	-6.0	-3.3	-2.7
47	C[C@@H]1CCCCO[C@H](CN(C)S(=O)(=O)c2ccccc2)[C@H](C)CN([C@H](C)CO)C(=O)c2cc(NS(C)(=O)=O)ccc2O1	-1.8	8.6	-10.5
48	CC(C)NC(=O)N1C[C@@H]2[C@H](c3ccccc31)[C@@H](CO)N2C(=O)c1ccccn1	2.2	2.2	0.0
49	O=C(C[C@@H]1CC[C@H]2[C@@H](COC[C@@H](O)CN2C(=O)Nc2cc(Cl)cc(Cl)c2)O1)N1CCOCC1	5.1	-0.5	5.6
50	C[C@H](CO)N1C[C@H](C)[C@H](CN(C)Cc2ccc3c(c2)OCO3)OCc2ccccc2-c2ccccc2C1=O	-6.2	-9.9	3.7
51	COc1cccc(NC(=O)C[C@@H]2CC[C@@H]3[C@H](COc4ccc(NC(=O)c5ccccc5F)cc4C(=O)N3C)O2)c1	1.7	1.0	0.7
52	COc1cccc(NC(=O)Nc2ccc3c(c2)C(=O)N(C)C[C@H](OC)[C@H](C)CN(CC2CC2)[C@H](C)CO3)c1	-1.1	-3.5	2.4
53	O=C(C[C@@H]1C[C@@H]2c3cc(NS(=O)(=O)c4ccc(F)cc4)ccc3O[C@@H]2[C@H](CO)O1)NCc1ccc(Cl)cc1	?	.	.
54	CN(C)CC(=O)N1[C@H](CO)[C@H](c2ccccc2)C12CN(C(=O)c1ccccc1)C2	3.5	0.1	3.4
55	CC(C)NC(=O)N1[C@@H](CO)[C@@H](c2ccccc2)C12CN(Cc1cc(F)cc(F)c1)C2	?	.	.
56	CC=Cc1ccc2n(c1=O)C[C@@H]1[C@@H](CO)[C@H](C(=O)NCc3ccc4c(c3)OCO4)[C@H]2N1C(=O)CC (mixture of isomers)	-3.6	-1.2	-2.4
57	CC(C)NC(=O)N1[C@@H]2CN(C(=O)Nc3ccc(Cl)cc3)c3ccccc3[C@@H]2[C@@H]1CO	1.6	1.7	-0.1
58	C/C=C/c1ccc([C@@H]2[C@@H](CO)N3CCCCN(C(=O)Nc4ccc(OC)cc4)C[C@H]23)cc1	23.8	12.7	11.2
59	CCCC#Cc1ccc2c(c1)O[C@@H](CN(C)C(=O)Nc1ccc(OC)cc1)[C@H](C)CN([C@@H](C)CO)S2(=O)=O	-9.1	1.5	-10.5
60	CN(C)CC(=O)N1[C@H](CO)[C@@H](c2ccccc2-c2ccccc2F)[C@@H]1C#N	1.0	5.1	-4.1
61	COCCNC(=O)C[C@H]1CC[C@H]2[C@@H](COC[C@@H](O)CN2S(=O)(=O)c2ccccc2F)O1	6.1	3.1	3.0
62	O=C1CN(Cc2ccc(F)cc2)C[C@@H]2[C@H](c3ccc(Br)cc3)[C@@H](CO)N12	15.3	1.1	14.2
63	COc1ccc(NC(=O)N(C)C[C@H]2OCCCC[C@H](C)Oc3ccc(NS(=O)(=O)c4cccs4)cc3C(=O)N([C@@H](C)CO)C[C@H]2C)cc1	-3.4	-1.4	-2.0
64	CS(=O)(=O)N1[C@H](C#N)[C@H](c2ccccc2-c2ccccc2F)[C@H]1CO	-0.2	-3.9	3.6
65	CO[C@H](CN(C)C(=O)c1cnccn1)[C@H](C)CN([C@H](C)CO)S(=O)(=O)c1ccccc1	-1.3	-8.2	6.9
66	Cc1ccccc1NC(=O)Nc1ccc2c(c1)C(=O)N(C)[C@H]1CC[C@@H](CC(=O)NCC3CC3)O[C@H]1CO2	1.1	-2.1	3.2
67	COCC(=O)N1CC[C@@H]2[C@H]1c1cc(-c3ccc(OC)cc3)ccc1N(C)[C@@H]2CO	1.3	-7.4	8.7
68	CCN(C[C@@H]1N[C@@H](CO)[C@H]1c1ccccc1)C(=O)c1ccncc1	-1.1	2.1	-3.2
69	CO[C@@H]1CN(C)C(=O)c2cc(NC(C)=O)ccc2OC[C@H](C)NC[C@@H]1C	1.1	3.4	-2.2
70	C/C=C/c1ccc([C@@H]2[C@@H](CO)N3C(=O)CN(S(=O)(=O)c4ccccc4)C[C@@H]23)cc1	?	.	.
71	CN1C(=O)c2cc(NC(=O)c3ccc(F)cc3)ccc2OC[C@H]2O[C@@H](CC(=O)N3CCOCC3)CC[C@H]21	-0.1	-1.7	1.6
72	O=C(Cc1cccnc1)N1CC(=O)N2[C@H](CO)[C@@H](c3ccc(/C=C/c4ccccc4)cc3)[C@@H]2C1	?	.	.
73	O=C(C[C@@H]1CC[C@@H](NC(=O)CC2CC2)[C@@H](CO)O1)NCc1ccc(-c2ccccc2)cc1	9.1	10.1	-1.0
74	C[C@H](CO)N1C[C@H](C)[C@@H](CN(C)CC2CCCCC2)OCCCC[C@H](C)Oc2ccc(NC(=O)C3CCCCC3)cc2C1=O	-0.5	3.0	-3.5
75	O=C(Cc1ccncc1)NCC[C@@H]1CC[C@H](NC(=O)Nc2cccc(F)c2)[C@H](CO)O1	-3.7	-15.0	11.3
76	CO[C@@H]1CC[C@H]2CCN(C)C(=O)C[C@@H](c3ccccc3)CN(C)C(=O)c3cccc(C#N)c3OC[C@H]1O2	2.4	1.7	0.7
77	CS(=O)(=O)N1[C@@H]2c3cccc(=O)n3C[C@H]1[C@H](CO)[C@H]2C(=O)NCc1ccccc1	2.1	-1.7	3.8
78	CCCNC(=O)N1CC(=O)N2[C@H](C1)[C@H](c1ccc(-c3ccc(F)cc3)cc1)[C@@H]2CO	2.4	3.2	-0.8

# This is a subset, so the mix of outcomes need not match the whole.
